Mtb hypoxia inh – Mtb hypoxia fluorescent reporter inhibition. M. tuberculosis hypoxia-regulated fluorescent reporter, fluorescence. fluorescence inhibition, % (test concentration not listed). hit rate 0.1% among 300,000. AID 1159583;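 active = 35 to 45% if threefold the growth effect, above 45% if 1.5-fold the growth effect; inactive = the rest, general growth blockers included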;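 also: wells of about 50 µL received 100 nL stock; 0% = vehicle wells and 100% = reference inhibitor wells; whole bacteria with a GFP reporter of the hypoxia response; strong numbers were not always called active; many hits fall short of the cut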
PrP 5UTR inh – suppresses PrP 5' UTR mRNA reporter expression; cell-based PrP 5' UTR mRNA reporter, plate reader; inhibition, % (concentration not given with the values); hit rate 0.35% among 340,000;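 active = every replicate at 50% or more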;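 also: 0 = median of the neutral control wells; tested in H4 reporter cells; numbers are from one replicate; inactives centre near -14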
Sa ugtP lethal – compounds lethal to S. aureus RN4220 ugtP deletion mutant; AID 1259309; OD600 growth, 16 h; some inactives read as strong as hits; hit rate 0.54% among 330,000; growth inhibition, % (concentration not given with the values);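 active = z-score under -3 and OD600 up to 0.15 on both plates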;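 also: plate controls were untreated wells for no effect and antibiotic for full effect; wells of about 80 µL received 100 nL stock; the first replicate is given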
BJeLR viability – BJeLR cell viability loss; BJeLR (HRASV12) viability, CellTiter-Glo ATP luminescence, 48 h; reference of the scale not given here; inhibition, % (no concentration beside the values); hit rate 0.17% among 300,000;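 active = replicate mean above 50%; inconclusive = above 50% but judged a plate artefact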;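 also: 50 nL library stock added to about 25 µL; numbers are from one replicate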
Sa RN4220 lethal – S. aureus RN4220 growth inhibition; inhibition, % (no concentration beside the values); OD600, 16 h; AID 1259311; hit rate 0.33% among 330,000;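 active = z-score of -3 or lower and OD600 up to 0.18 on both plates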;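 also: plate controls were untreated cells for no effect and reference antibiotic for full effect; stock transfer was 100 nL into about 80 µL; one replicate is shown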
Autofluor counter – counter-screen for toxin protease inhibitors: compound fluorescence; compound autofluorescence counterscreen, microsphere flow cytometry; hits give high values; fluorescence intensity (test concentration not listed); hit rate 3.1% among 360,000;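 active = at least 3 SD above the mean of all compounds, about 16000 in these data; inconclusive = too few beads counted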;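 also: 100 nL of 1 mM stock went into each well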
Mtb hypoxia inh growth – further read-out of Mtb hypoxia inh, marked with its call; growth inhibition, %; measured here: M. tuberculosis growth (absorbance);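 0% = vehicle and 100% = reference antibiotic; read after six days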
Active calls of the source: *; ? = inconclusive; / = no result given.

entry | SMILES | Mtb hypoxia inh | Mtb hypoxia inh growth | PrP 5UTR inh | Sa ugtP lethal | BJeLR viability | Sa RN4220 lethal | Autofluor counter
1 | O=C(CCN1C(=O)/C(=C\c2cccs2)SC1=S)NC1=NCCS1 | / | / | -16 | / | 3 | / | 10667
2 | CCOc1ccc(N(CC(=O)NC2CCCC(C)C2C)S(=O)(=O)c2c(C)noc2C)cc1 (stereo unspecified) | / | / | -14 | -5 | -2 | 4.5 | 5881
3 | CC(C)CN1CCC(=O)N([C@H](COc2ccccc2)Cc2ccccc2)CC1 | / | / | 15 | / | 5 | / | 3037
4 | CCCNC(=O)N1C2=NC(C(=O)OC)=C(C(=O)OC)C3N(Cc4ccccc4)c4ccccc4[C@]23CC1CO (stereo partly specified) | 2 | 7 | / | 3 | / | 2.1 | /
5 | COc1ccc(S(=O)(=O)Nc2nnc(C(C)C)s2)cc1 | 5 | 10 | -3 | -10 | -3 | 17 | 4343
6 | Cc1ccccc1C(=O)NNC(=O)CCCCC(=O)NNC(=O)c1ccccc1C | 8 | -3 | -3 | 2 | -19 | 1.6 | 4627
7 | CCOC(=O)COc1ccc2cc(C(=O)OCC)c(=O)oc2c1 | -2 | 11 | 1 | -10 | -9 | -13 | 2275
8 | COC(CNC(=O)C1CC(=O)N(CCc2ccccc2)C1)OC (stereo unspecified) | -1 | -1 | -2 | 5 | 0 | 2.3 | 20271*

Reprinted from the part before: 4 entries, then new ones.
entry | SMILES | Mtb hypoxia inh | Mtb hypoxia inh growth | PrP 5UTR inh | Sa ugtP lethal | BJeLR viability | Sa RN4220 lethal | Autofluor counter
5 | COc1ccc(S(=O)(=O)Nc2nnc(C(C)C)s2)cc1 | 5 | 10 | -3 | -10 | -3 | 17 | 4343
6 | Cc1ccccc1C(=O)NNC(=O)CCCCC(=O)NNC(=O)c1ccccc1C | 8 | -3 | -3 | 2 | -19 | 1.6 | 4627
7 | CCOC(=O)COc1ccc2cc(C(=O)OCC)c(=O)oc2c1 | -2 | 11 | 1 | -10 | -9 | -13 | 2275
8 | COC(CNC(=O)C1CC(=O)N(CCc2ccccc2)C1)OC (stereo unspecified) | -1 | -1 | -2 | 5 | 0 | 2.3 | 20271*
9 | CCOC(=O)C1CCN(C(=O)c2ccc(OC3CCN(C(=O)CCOC)CC3)cc2)CC1 | 8 | 3 | -13 | 3 | -6 | 4.1 | 6077
10 | O=C(NCN1CCN(c2ccccn2)CC1)c1cnccn1 | 0 | 2 | 0 | -2 | 8 | -13 | 2636
11 | Cc1cc(=O)oc2cc(OCCCC[n+]3ccccc3)ccc12 | 0 | -1 | -29 | -4 | -13 | -0.1 | 6431
12 | CC1(C)CC(=O)c2sc(NC(=O)c3ccc4ncsc4c3)nc2C1 | 0 | 6 | -34 | -14 | -8 | 16 | 5701
13 | CCN(CC)S(=O)(=O)c1ccc(OCC(=O)NCc2ccccc2)cc1 | 5 | 10 | -61 | 10 | 4 | 1.8 | 5751
14 | CCOC(=O)NNC(=O)CCn1c2c(c3ccccc31)CCCC2 | -10 | 11 | -8 | 2 | -5 | 0.1 | 4563
15 | CC1(C)CC2(CC(c3ccccc3F)c3cc(Cl)c(O)cc3O2)NC(=S)N1 (stereo unspecified) | -4 | -2 | -35 | -31 | -10 | -5.7 | 4202
16 | COc1ccccc1CNC(=O)C/C(C)=N/NC(=O)Cc1ccccc1 | / | / | -16 | / | -25 | / | 9209

Retrieved by structure from above (two):
entry | SMILES | Mtb hypoxia inh | Mtb hypoxia inh growth | PrP 5UTR inh | Sa ugtP lethal | BJeLR viability | Sa RN4220 lethal | Autofluor counter
7 | CCOC(=O)COc1ccc2cc(C(=O)OCC)c(=O)oc2c1 | -2 | 11 | 1 | -10 | -9 | -13 | 2275
12 | CC1(C)CC(=O)c2sc(NC(=O)c3ccc4ncsc4c3)nc2C1 | 0 | 6 | -34 | -14 | -8 | 16 | 5701

(listing goes on)
entry | SMILES | Mtb hypoxia inh | Mtb hypoxia inh growth | PrP 5UTR inh | Sa ugtP lethal | BJeLR viability | Sa RN4220 lethal | Autofluor counter
17 | CCOc1ccc(CCNC(=O)COC(=O)c2cc(=O)[nH]c3ccccc23)cc1OCC | 3 | -8 | -13 | 5 | 12 | 3.7 | 6030
18 | COc1ccc(OC)c(-n2nnnc2SCC(=O)Nc2ccc(C(=O)N3CCCCC3)cc2)c1 | 1 | 4 | -17 | 5 | 12 | 4.8 | 7488
19 | COc1ccc(C2CC(=O)C=C(c3cccc(C(C)C)c3)C2)cc1OC (stereo unspecified) | 1 | 3 | / | -1 | / | -4.5 | /
20 | CC1CC(C)CN(C(=O)c2ccc(-c3ccc([N+](=O)[O-])cc3)o2)C1 (stereo unspecified) | / | / | -27 | / | -2 | / | 4225
21 | Cc1cc[n+](CC(=O)c2cccs2)cc1 | 9 | 1 | -25 | 5 | 2 | 3.4 | 8564
22 | COc1ccc(COC(=O)c2ccc(S(=O)(=O)N3CCC(C)CC3)cc2)cc1 | / | / | -8 | / | 0 | / | 4195
23 | CSC1=NCCN1C(=O)C(C)Oc1ccccc1 (stereo unspecified) | / | / | -3 | 0 | -2 | 0.3 | 6154
24 | Cc1ccc(C(=O)CSc2ncn[nH]2)cc1 | 9 | -4 | -15 | 3 | 1 | 3.6 | 12147

Additional entries
entry | SMILES | Mtb hypoxia inh | Mtb hypoxia inh growth | PrP 5UTR inh | Sa ugtP lethal | BJeLR viability | Sa RN4220 lethal | Autofluor counter
25 | COc1ccc(-c2cn(Cc3ccc(C(N)=O)cc3)c(CCN)n2)cc1 | 8 | 3 | 3 | 1 | / | 1.1 | 4165
26 | O=C(COC(=O)CNC(=O)c1ccco1)Nc1ccccc1OC(F)F | 8 | -1 | -19 | 7 | 3 | 0.6 | 5386
27 | Nc1nc(SCC(=O)NCCO)nc2sc3c(c12)CCCC3 | 0 | -2 | -27 | 1 | -1 | 6.6 | 4244
28 | Cc1ccc(NS(=O)(=O)c2ccc(Br)s2)cc1S(=O)(=O)N1CCOCC1 | 7 | -1 | -39 | 20 | 0 | 18 | 4723
29 | Cc1cc(C)n2cc(CSc3nnc(-c4ccccc4)c(-c4ccccc4)n3)nc2n1 | 4 | 4 | -20 | -4 | / | 1.6 | 3981
30 | Cc1nc(N)sc1-c1nnc(SCC(=O)Nc2nccs2)n1C | / | / | 9 | -1 | 10 | -1.7 | 2151
31 | CCOc1cc(/C=C2\SC(=N)N(c3nonc3N)C2=O)ccc1OCC(N)=O | 0 | 8 | -19 | 0 | -2 | 7.2 | 2466
32 | O=C1CSC(c2cn(-c3ccccc3)nc2-c2cccs2)N1CC1CCCO1 (stereo unspecified) | 11 | 14 | -36 | -3 | 5 | -5.6 | 2645

More structures
entry | SMILES | Mtb hypoxia inh | Mtb hypoxia inh growth | PrP 5UTR inh | Sa ugtP lethal | BJeLR viability | Sa RN4220 lethal | Autofluor counter
33 | CC(c1ccon1)N(C)Cc1cn(C)nc1-c1cccc(Cl)c1 (stereo unspecified) | 4 | 4 | -9 | 4 | 1 | 3.2 | 2160
34 | CCOc1ccccc1OCCC(=O)N1CCN(S(=O)(=O)c2ccccc2[N+](=O)[O-])CC1 | -4 | -7 | 6 | -4 | / | 4.6 | ?
35 | CCc1ccc(-c2nc(CS(=O)CC(=O)NCc3ccco3)c(C)o2)cc1 (stereo unspecified) | 5 | 1 | -1 | 7 | -3 | -2.0 | 5386
36 | Cc1ccc(C2(c3noc(CN(C)CC4COCCO4)n3)CCCC2)cc1 (stereo unspecified) | 10 | 8 | -33 | 5 | -13 | 6.0 | 4199
37 | CCc1ccccc1NC(=O)CNCC(=O)Nc1ccccc1CC | 5 | 4 | -36 | 12 | 6 | -1.5 | 3849
38 | CCCNC(=S)N1CCC(Cc2ccccc2)CC1 | 10 | -6 | 7 | 7 | 1 | 1.5 | /
39 | CCOC(=O)c1ccc(OC)c(OC)c1Cl | 3 | -5 | -3 | 3 | -3 | 5.2 | 4041
40 | COc1ccc(N(CC(=O)NCCc2ccccc2)C(=O)c2csnn2)cc1 | -2 | -5 | -17 | -2 | -18 | 1.8 | 5170

Next structures follow:
entry | SMILES | Mtb hypoxia inh | Mtb hypoxia inh growth | PrP 5UTR inh | Sa ugtP lethal | BJeLR viability | Sa RN4220 lethal | Autofluor counter
41 | C(=NNc1ccc2ccccc2n1)c1ccc2c(c1)OCO2 | -3 | -9 | / | 10 | / | -0.3 | /
42 | Cc1ccc2nc(-c3ccccn3)[nH]c2c1 | -3 | 10 | 18 | 0 | 27 | 1.9 | /
43 | COc1ccc(C)cc1NC(=O)C1CCN(S(=O)(=O)c2ccc3c(c2)NC(=O)CO3)CC1 | 5 | -13 | -10 | -1 | 12 | 1.5 | 4651
44 | COc1cc(/C=C2/CC(C)OC2=O)c([N+](=O)[O-])cc1OC (stereo unspecified) | 9 | 3 | -14 | 4 | 14 | 5.9 | 3061
45 | O=C(CN1C(=O)C2C3C=CC(C3)C2C1=O)Nc1ccc2c(c1)OCCO2 (stereo unspecified) | 10 | 11 | -26 | -3 | -9 | 5.2 | 4279
46 | CCOC(=O)CNC(=O)CN1C(=O)CCS(=O)(=O)c2ccccc21 | 14 | 8 | -3 | -3 | 7 | -13 | 3710
47 | CCCNC(=O)C/C(C)=N/NC(=O)COc1ccc(C)cc1Br | / | / | -8 | / | -9 | / | 10689
48 | Cc1ccc(NC(NC(=O)Cc2ccccc2)C(Cl)(Cl)Cl)cc1 (stereo unspecified) | 12 | 10 | -23 | 7 | / | 1.9 | 2610

More compounds.
entry | SMILES | Mtb hypoxia inh | Mtb hypoxia inh growth | PrP 5UTR inh | Sa ugtP lethal | BJeLR viability | Sa RN4220 lethal | Autofluor counter
49 | O=C(Nc1cc(S(=O)(=O)N2CCCC2)ccc1Cl)C1=COCCO1 | 3 | 3 | -17 | 4 | 3 | 7.3 | 5901
50 | COc1cccc2c(=O)n(CC(=O)N3CCc4ccccc43)ccc12 | 13 | 12 | -28 | -1 | 0 | -7.6 | 5612
51 | Cc1ccc(C2SCC(=O)N2Cc2ccccc2)cc1 (stereo unspecified) | 2 | -5 | 3 | 21 | -1 | 3.1 | 3203
52 | CC(C)(C)C(=O)CC1(O)C(=O)N(Cc2ccccc2)c2ccccc21 (stereo unspecified) | 1 | 5 | -13 | 0 | -8 | 2.0 | 12532
53 | CC(NC(=O)/C(C#N)=C/c1ccc([N+](=O)[O-])o1)c1ccccc1 (stereo unspecified) | / | / | -4 | / | -8 | / | 4450
54 | COc1cc(NC(=O)c2ccccc2Cl)c(OC)cc1NC(=O)CN1CCOCC1 | 10 | 4 | -22 | -3 | 0 | -16 | 2397
55 | CCCn1c(=O)c(C(=O)N/N=C/c2ccccc2F)c(O)c2ccccc21 | / | / | -30 | / | 3 | / | 4084
56 | O=C(CN1C(=O)c2ccccc2C1=O)Oc1ccc(Cl)cc1 | 6 | 8 | -21 | 11 | -3 | 2.3 | 3936

More entries follow:
entry | SMILES | Mtb hypoxia inh | Mtb hypoxia inh growth | PrP 5UTR inh | Sa ugtP lethal | BJeLR viability | Sa RN4220 lethal | Autofluor counter
57 | COc1cc(CNC2CCCC2)cc(OC)c1 | 2 | 5 | -32 | 9 | 4 | 2.0 | 9896
58 | Cc1ccnc(NC(=O)CCC(=O)N(CC(=O)NCCc2ccccc2)c2ccc(F)cc2)c1 | 7 | 4 | -10 | -4 | 1 | 3.3 | 3053
59 | COc1ccc2oc(C(=O)OCC(=O)NCC3CCCO3)c(C)c2c1 (stereo unspecified) | 3 | 7 | -5 | 1 | -14 | 1.9 | 5641
60 | O=C(O)c1c(-c2ccccc2)oc2ccc(O)cc12 | -5 | 19 | -14 | 6 | 5 | 6.2 | 3478

Arranged by count of non-hydrogen atoms (lowest first): six of the compounds above
entry | SMILES | Mtb hypoxia inh | Mtb hypoxia inh growth | PrP 5UTR inh | Sa ugtP lethal | BJeLR viability | Sa RN4220 lethal | Autofluor counter
60 | O=C(O)c1c(-c2ccccc2)oc2ccc(O)cc12 | -5 | 19 | -14 | 6 | 5 | 6.2 | 3478
56 | O=C(CN1C(=O)c2ccccc2C1=O)Oc1ccc(Cl)cc1 | 6 | 8 | -21 | 11 | -3 | 2.3 | 3936
53 | CC(NC(=O)/C(C#N)=C/c1ccc([N+](=O)[O-])o1)c1ccccc1 (stereo unspecified) | / | / | -4 | / | -8 | / | 4450
59 | COc1ccc2oc(C(=O)OCC(=O)NCC3CCCO3)c(C)c2c1 (stereo unspecified) | 3 | 7 | -5 | 1 | -14 | 1.9 | 5641
55 | CCCn1c(=O)c(C(=O)N/N=C/c2ccccc2F)c(O)c2ccccc21 | / | / | -30 | / | 3 | / | 4084
54 | COc1cc(NC(=O)c2ccccc2Cl)c(OC)cc1NC(=O)CN1CCOCC1 | 10 | 4 | -22 | -3 | 0 | -16 | 2397

Screens as filed in PubChem.
